Screening data from PubChem BioAssay.
HSD17B inh – blocks hydroxysteroid 17-beta dehydrogenase activity; Q99714; recombinant HSD17B10, NADH fluorescence kinetic; many of its hits are not listed in these tables; Potency, µM (series often up to 57.1 µM), for inactives: top-dose activity change, negative = inhibition, hits mostly inhibitors; 7.6% of 75,000 active; active = well fitted inhibition curve with a large enough effect; inconclusive = small, poorly fitted or top-dose-only effect; inactive = no such curve, though single readings can be large or run the other way;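 also: the protocol describes HADH2 (HSD17B10) and not the HSD17B4 of the title; nearly all actives have a fitted effect of over 70% in size; most hits overshoot -100% by far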
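His-tagged E. coli-expressed HADH2 at 20 nM in 100 mM Tris-HCl pH 9.0 with 0.01 % Tween-20, preincubated 15 min with compound at room temperature. Reaction with 1 mM NAD+ and 90 uM beta-hydroxybutyryl coenzyme A; NADH fluorescence (360/450 nm) read kinetically over 4 min, last minus first point.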
* hit, by the source's call; ? = inconclusive; & = joins results of further samples; [ ] = another dose, or the depositor's remark. % is scaled to controls: 0 for no effect and ±100 for the full control effect; potency is read from the fitted curve at half-maximal effect. This is a subset; the hit share may differ from the screen's.

SMILES	HSD17B inh
Cc1ccc(C2C(=O)N(C3CCCC3)CC(=O)N2CC2COc3ccccc3O2)cc1 (stereo not drawn)	4%
Nc1nc(OCC(F)(F)F)cc(Oc2ccccc2F)n1	-11%
CCOc1ccccc1CN1CCN(S(C)(=O)=O)CC1	8%
CCN(CC)C(c1ccc(C)cc1)c1nnnn1C1CCCCC1 (stereo not drawn)	-5%
O=C(CCN1CCC(c2ccccc2)C1)c1cccs1 (stereo not drawn)	-4%
CCOc1cc(C(=O)Nc2ccc(S(=O)(=O)N3CCOCC3)cc2)cc(OCC)c1OCC	5%
Cc1nc(C)c2c(=O)cc(-c3ccccc3)[nH]c2n1	32µM*
O=C(CSc1nnc(CNC(=O)c2c(F)cccc2Cl)o1)Nc1ccc2c(c1)OCCO2	5%
CCOc1ccc(CNC(=O)CCn2c(=O)oc3ccccc32)cc1	4%
CCNC(=O)[C@H]1O[C@H](n2cnc3c(N)nc(NCCc4ccc(CCC(=O)O)cc4)nc32)[C@@H](O)[C@@H]1O	?
C=CCn1c(SCCN2CCOCC2)nc2c1c(=O)[nH]c(=O)n2C	-1%
O=S(=O)(NC1CC1)c1ccc(S(=O)(=O)N2CCCc3ccccc32)cc1	1%
C[C@H](CCC(=O)O)[C@H]1CC[C@@H]2[C@@H]3CC[C@H]4C[C@@H](O)CC[C@@]4(C)[C@@H]3C[C@H](O)[C@@]21C	-9%[11.4 µM]
Cc1cccc(-n2ncc(C#N)c2N)c1	3%
COc1cccc(NC(=O)c2ccc(S(=O)(=O)N3CCCCC3)cc2)c1	?
CC(=N/O)/C(=N\O)c1ccc(C)o1	5%
COc1ccc(OC)c(C(=O)CN2CCN(S(=O)(=O)c3ccc(Br)cc3)CC2)c1	0%
Cn1c2ccc(F)cc2c2ncn(CCN3CCOCC3)c(=O)c21	25µM*
Cc1c(C(=O)NCc2ccccn2)oc2ccc(S(=O)(=O)N3CCOCC3)cc12	6%
COc1ccc(CNC(=O)C(C)N(Cc2ccco2)C(=O)c2snc(C(N)=O)c2N)cc1 (stereo not drawn)	?
COC(=O)c1cccc(C23CC4(C2)[C@H](CN(CC2CCCCC2)[C@@H]4c2ccccc2)C3c2ccc(C(F)(F)F)cc2)c1 (stereo partly drawn)	-5%
C=CCn1c(Cc2cccs2)nnc1SCC(=O)Nc1cccc(OC)c1	-1%
CC(=O)Nc1ccc(C)cc1NC(C)=O	2%
O=C(Nc1ccon1)c1ccc2c(c1)OCO2	-10%
COC(=O)c1ccccc1NC(=O)c1ccco1	0%
CC(c1nnc(SCC(=O)NC(=O)NCc2ccco2)n1-c1ccc(Cl)cc1)N(C)C (stereo not drawn)	-16%
CCOCCCNc1nc2c(c(=O)[nH]c(=O)n2C)n1CCCc1ccccc1	-3%
C#CCCCO/N=C1/C[C@@H](O)[C@@H](O)[C@@H]2[C@@H]3C(=O)N(C[C@@H]4CCCO4)C(=O)[C@H]3CC[C@@H]12	1%[11.4 µM]
Cc1cccc(NC(=O)CSc2n[nH]c(-c3ccncc3)n2)c1	-1%
Cc1nn(Cc2nc(-c3cccs3)no2)c(C)c1Br	-12%
COc1cc(NS(=O)(=O)c2ccc(C)cc2)ccc1-n1cnnn1	2%
CN(C)CCCOC(=O)CCc1ccccc1	11%
C=CCOc1ccc2ccccc2c1CNc1ncn[nH]1	15%
CCc1ccc(C(=O)Nc2nnn(CC)n2)cc1	6%
CCOc1ccc(-c2nc3n(c(=O)c2C#N)CCCS3)cc1	20µM*
CCOC(=O)N1CCC(NC(=O)C(C)n2c3ccccc3c3cnn(C)c(=O)c32)CC1 (stereo not drawn)	?
COc1cc(C(c2sc3nc(C)nn3c2O)N2CCOCC2)cc(OC)c1OC (stereo not drawn)	10%
CCOC(=O)C1=C(O)CSC1=Nc1cccc(Cl)c1	6%
Cc1c(C(=O)N2CCOCC2)[nH]c2c1C(=O)CC(c1ccccc1Cl)C2 (stereo not drawn)	2%
COC(=O)c1[nH]c2ccc(C)cc2c1NC(=O)CN1CCc2cc(OC)c(OC)cc2C1	25µM*
Fc1ccc(-c2nnc(CN3CCN(c4ncc(C(F)(F)F)cc4Cl)CC3)o2)cc1	9%
CC(=O)c1cccc(NC(=O)CC2Oc3ccc(C)cc3NC2=O)c1 (stereo not drawn)	-4%
CC(C)CNC(=O)COC(=O)c1cc(S(=O)(=O)N2CCCCC2)ccc1N1CCOCC1	-4%
COc1ccc(C(=O)Nc2ccc(Cl)cn2)cc1Cl	-15%
CCOc1ccccc1C1CC(=O)Nc2cc3c(cc21)OCCO3 (stereo not drawn)	-3%
O=c1c(N2CCCCC2)coc2ccccc12	4%
COC(=O)c1ccc(C2C(C(=O)OC(C)C)=C(C)N=C3SCCC(=O)N32)cc1 (stereo not drawn)	-12%
COc1ccc(CN2CCN(C(=O)CN3C(=O)C4C5C=CC(C5)C4C3=O)CC2)c(OC)c1OC (stereo not drawn)	-1%
Cc1nc2nc3c(cn2n1)C(=O)CC(C)(C)C3	13%
COc1ccc(-c2nnc(N)s2)cc1	?
COC(=O)[C@@]1(Cc2ccc(F)cc2)[C@@H]2[C@@H](CC(=O)[C@H]2CC(=O)C(=O)N2CCCC2)CN1C(=O)c1ccccc1	-1%
Cn1nnnc1SCC(=O)N1CCN(c2cccc(Cl)c2)CC1	6%
C=C(C)Cn1c(CCNC(=O)CCC)nc2ccccc21	6%
Cc1ccc2c(c1)CCCN2C(=O)c1ccc2c(c1)OCO2	4%
C#CCSc1nnc(-c2cccc3ccccc23)o1	?
Cc1sc2nc(C(C)Sc3nnc(C)n3-c3ccccc3)[nH]c(=O)c2c1C (stereo not drawn)	-4%
COc1ccc(Br)cc1C(=O)Nc1cccc(-c2nnc(-c3ccco3)o2)c1	1%
COc1ccc(NS(=O)(=O)c2cccc3cccnc23)cc1	-1%
Cc1cccc2cc(C#N)c(SCC(=O)N3CC(=O)Nc4ccccc43)nc12	?
c1ccc(CCc2nc(-c3ccncc3)no2)cc1	12%
Remaining list, next part
SMILES	HSD17B inh
CC12CC(NC(=O)N1c1ccc(C(=O)N3CCN(c4ccc(F)cc4)CC3)cc1)c1ccccc1O2 (stereo not drawn)	-2%
CC(NC(=O)Nc1nnc(C(F)(F)F)s1)N1C(=O)C2C3C=CC(C3)C2C1=O (stereo not drawn)	-1%
COc1ccc(-c2noc(CN3CCN(c4ccccc4)CC3)n2)cc1	-4%
O=C(c1ccccc1)N1CCN(Cc2ccccc2Br)CC1	-11%
Cc1[nH]n(-c2ccccc2)c(=O)c1-c1ccccc1	-11%
N#Cc1cccc(-c2ccc3ncnc(NC4CCNCC4)c3c2)c1	?
CC1CCN(C(=O)CSc2ccc3nnc(-c4ccc(F)cc4)n3n2)CC1	-25%
C(#Cc1ccccc1)Cn1nnc2ccccc21	32µM*
CCCCN(C)Cc1c(C)[nH]c2ccc(Cl)cc2c1=O	-9%
Cn1c(Cn2c(=O)sc3ccccc32)nnc1SCC(=O)NCCc1ccccc1	4%
Cc1cc(NC(=O)CSc2nc3ccccc3c(=O)n2C2CCCC2)no1	5%
Cc1cc(NC(=O)c2cc(-c3cccs3)on2)nn1Cc1ccc(Cl)cc1	45%[activator]
Cc1cccc(Cn2c(SCCO)nc3c2c(=O)n(C)c(=O)n3C)c1	2%
COc1ccc(-c2cc(C(=O)Nc3c(C)nn(Cc4ccccc4Cl)c3C)no2)cc1OC	-9%
Cc1onc(-c2ccccc2Cl)c1C(=O)Nc1ccccc1C(N)=O	9%
O=C(c1ccc(Cl)cc1)N1CCN(C(=O)c2ccco2)CC1	17%
c1ccc(C(c2nnnn2Cc2ccco2)N2CCN(C3CCCC3)CC2)cc1 (stereo not drawn)	-40%
CCOc1ccc(N(CC(=O)N2CCc3ccccc32)S(=O)(=O)c2c(C)noc2C)cc1	3%
O=C(NCC(F)(F)F)Nc1cccnc1	-1%
CCSc1ccccc1C(=O)Nc1cccnc1	-6%
Cc1noc(NS(=O)(=O)c2ccc(NC(=O)COc3ccc(Cl)cc3Cl)cc2)c1C	?
COC(=O)c1ccccc1S(=O)(=O)NC(=O)c1ccccc1	0%
COc1cccc(-c2cc(NCc3cccs3)ncn2)c1	-23%
Cc1csc(B(O)O)c1	15%
O=C(NCCN=C1NS(=O)(=O)c2ccccc21)c1ccc2nccnc2c1	-7%
CC1(C)CC(=O)C(CC2=C(O)CC(C)(C)CC2=O)=C(O)C1	0%
CCCC(c1nnnn1CCc1ccccc1)N1CCN(C(=O)c2ccco2)CC1 (stereo not drawn)	-2%
CSc1nc2cc(S(=O)(=O)N3CCCCC3)ccc2s1	7%[11.4 µM]
C[C@@H](C(=O)O)c1ccc(C(=O)c2ccccc2)s1	-8%[25.6 µM]
Cc1cc(C(=O)CSc2nnnn2C)c(C)n1-c1ccc2c(c1)OCCO2	-4%
CCOC(=O)N1CCN(C(=O)c2ccc(CN(c3ccccc3)S(C)(=O)=O)cc2)CC1	4%
CCOC(=O)C(C#N)C(c1cccnc1)c1c(C)[nH][nH]c1=O (stereo not drawn)	-4%
CCOC(=O)N1CCN(c2c(-c3ccc(C)c(C)c3)c(=O)c2=O)CC1	8%
O=C1OC2(c3ccccc3)C3CCCC2C13	3%
CCCC(=O)Nc1cc(OCC)c(NC(=O)NC2CCCCC2)cc1OCC	11%
COc1cccc(-c2cncnc2Nc2ccc(F)cc2)c1	-2%
CCCC(=O)NCCc1cc2cc(C)c(C)cc2[nH]c1=O	25µM*
CCc1nc(N)c(C#N)c(-c2ccncc2)c1C	?
Cc1cc(C)c(C#N)c(N2CCN(Cc3ccc4c(c3)OCO4)CC2)n1	-14%
COc1ccc(Cl)cc1NC(=O)CCn1cnc2ccccc2c1=O	-6%
O=C(NCc1ccc2c(c1)OCO2)c1c[nH]c2ccc(S(=O)(=O)N3CCOCC3)cc2c1=O	32µM*
Cc1ccccc1OCC(=O)Nc1cccc(NC(=O)c2ccco2)c1	4%
COc1ccc2cc(C(=O)NC3CCCCC3)c(=O)oc2c1	2.5µM*
Cc1ccc(NCc2nnc(SCC(=O)N3CCCCC3)n2CC2CCCO2)c(C)c1 (stereo not drawn)	2%
COc1cccc(CNc2nc3nc(C)cc(C)n3n2)c1	32µM*
Cc1nc2c(C(=O)NCc3ccc4c(c3)OCO4)c[nH]n2c(=O)c1Cl	32µM*
COCCn1nnnc1C(CC(C)C)N1CCN(c2cccc(OC)c2)CC1 (stereo not drawn)	0%
Cn1ncc2c(NCc3ccccc3)ncnc21	-6%
CCCCC(=O)Nc1ccc2oc(-c3ccncc3)nc2c1	25µM*
COCCn1c(-c2ccc(-c3ccccc3Cl)o2)nc2c1c(=O)[nH]c(=O)n2CC(C)C	6.3µM*
O=S(=O)(NC1CC1)c1ccc(S(=O)(=O)N2CCCC3(CCCCC3)C2)cc1	4%
COc1ccc(CC(NC(=O)c2ccccc2)C(=O)NCC(=O)O)cc1 (stereo not drawn)	15%
CC(=O)Nc1ccc(C(=O)Nc2ccc(S(=O)(=O)N3CCCC3)cc2)cc1	-1%
CCSc1ccc2c(c1)N(CCCN1CCN(C)CC1)c1ccccc1S2	-6%[25.6 µM]
CCn1c(SCC(=O)OCC(=O)N2c3ccccc3NC(=O)C2(C)C)nnc1-c1ccco1	-1%
Cc1cc(O)c(-c2n[nH]c3c2C(c2cccc(O)c2)N(Cc2cccnc2)C3=O)cc1Cl (stereo not drawn)	-11%
O=c1c2ccccc2n(Cc2ccc(F)cc2)c(=O)n1C1CCCC1	-12%
O=C(CCc1ccccc1)Nc1ccc(N2CCOCC2)cc1	5%
CC(C)(C)NS(=O)(=O)c1ccc(CCC(=O)N2CCOCC2)cc1	-2%
CCOC(=O)CSC1=C(C#N)C(C)C2=C(CCCC2=O)N1 (stereo not drawn)	88%[activator]
C=C(C)C(=O)OCC1CN2C(CCC(C)C2c2ccc(Br)cc2)C(=O)O1 (stereo not drawn)	1%&-3%&7%[11.4 µM]
COc1ccc(-c2nn(-c3ccccc3)cc2/C=N/n2cnnc2)cc1OC	0%
Cc1nn(C)c(C)c1S(=O)(=O)N1CCC(C(=O)NCCC2=CCCCC2)CC1	-4%

Of the compounds above, 12 have fluorine:
SMILES	HSD17B inh
Nc1nc(OCC(F)(F)F)cc(Oc2ccccc2F)n1	-11%
O=C(CSc1nnc(CNC(=O)c2c(F)cccc2Cl)o1)Nc1ccc2c(c1)OCCO2	5%
Cn1c2ccc(F)cc2c2ncn(CCN3CCOCC3)c(=O)c21	25µM*
COC(=O)c1cccc(C23CC4(C2)[C@H](CN(CC2CCCCC2)[C@@H]4c2ccccc2)C3c2ccc(C(F)(F)F)cc2)c1 (stereo partly drawn)	-5%
Fc1ccc(-c2nnc(CN3CCN(c4ncc(C(F)(F)F)cc4Cl)CC3)o2)cc1	9%
COC(=O)[C@@]1(Cc2ccc(F)cc2)[C@@H]2[C@@H](CC(=O)[C@H]2CC(=O)C(=O)N2CCCC2)CN1C(=O)c1ccccc1	-1%
CC12CC(NC(=O)N1c1ccc(C(=O)N3CCN(c4ccc(F)cc4)CC3)cc1)c1ccccc1O2 (stereo not drawn)	-2%
CC(NC(=O)Nc1nnc(C(F)(F)F)s1)N1C(=O)C2C3C=CC(C3)C2C1=O (stereo not drawn)	-1%
CC1CCN(C(=O)CSc2ccc3nnc(-c4ccc(F)cc4)n3n2)CC1	-25%
O=C(NCC(F)(F)F)Nc1cccnc1	-1%
COc1cccc(-c2cncnc2Nc2ccc(F)cc2)c1	-2%
O=c1c2ccccc2n(Cc2ccc(F)cc2)c(=O)n1C1CCCC1	-12%
